# Bioassay records deposited in PubChem BioAssay by National Center for Advancing Translational Sciences (NCATS).
# 2A StopGo: High Throughput Screening for Foot and Mouth Disease Virus Antivirals; AID 1159524, 2015; 1.2% of 410,000 active; Potency, µM (titrated, usually from 57.9 µM), for inactives: top-dose signal change, negative = less light; human cells with a luciferase reporter of 2A StopGo recoding; control for the full effect not named in the record; active = well fitted falling curve with a large enough effect; inconclusive = small, poorly fitted or top-dose-only effect; inactive = no such curve, though single readings can be large or run the other way; tested in HEK293T cells; note: % is set by controls: 0 for no effect and ±100 for the full control effect; nearly all actives have a fitted effect of over 45% in size; luciferase light after 4 h
# Cruzain inh noDet: qHTS Assay for Promiscuous and Specific Inhibitors of Cruzain (without detergent). Cruzipain (Trypanosoma cruzi), P25779. purified cruzain, Z-FR-AMC fluorescence, no detergent. Potency, µM, inactives show max response, negative = inhibition, actives largely listed as inhibitors. 2.3% of 200,000 active. AID 1476, 2009;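 note: plate controls were enzyme without inhibitor for no effect and buffer without enzyme for full effect; nearly all actives have a fitted effect of over 40% in size; top concentration of the series not given in the record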
# Target sequence (P25779 123-467 limits assumed): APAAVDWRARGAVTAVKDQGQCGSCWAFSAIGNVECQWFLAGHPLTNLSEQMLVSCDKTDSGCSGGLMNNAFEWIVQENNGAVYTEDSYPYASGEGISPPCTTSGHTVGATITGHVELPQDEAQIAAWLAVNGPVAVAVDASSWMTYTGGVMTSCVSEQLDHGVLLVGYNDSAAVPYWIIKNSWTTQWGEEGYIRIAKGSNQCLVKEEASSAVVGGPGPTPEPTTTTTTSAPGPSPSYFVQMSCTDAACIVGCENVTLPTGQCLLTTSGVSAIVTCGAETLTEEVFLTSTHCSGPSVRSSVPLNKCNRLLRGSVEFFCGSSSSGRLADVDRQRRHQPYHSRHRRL
#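 Detergent-free condition (0.00005% Triton X-100) in acetate buffer pH 5.5 with DTT. 1.5 nM enzyme and compound were pre-mixed 15 min, then 2 uM Z-FR-AMC substrate added; reaction progress from fluorescence change between first and third reads (60 s).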
# Cruzain Triton: qHTS Assay for Promiscuous and Specific Inhibitors of Cruzain (with detergent); 0.43% of 200,000 active; Cruzipain (Trypanosoma cruzi), P25779; AID 1478, 2009; purified cruzain, Z-FR-AMC fluorescence, 0.01% Triton; Potency, µM, for inactives: max response, negative = inhibition, hits mostly inhibitors;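 note: plate controls were neutral wells for no effect and buffer without enzyme for full effect; nearly all actives have a fitted effect of over 40% in size; top concentration of the series not given in the record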
#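 Enzyme 1.5 nM, Z-FR-AMC 2 uM, NaOAc 100 mM pH 5.5, DTT 5 mM, Triton X-100 0.01%; 15 min RT compound preincubation; kinetic ex360/em450, 60 s delta.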
# NS1 inh: qHTS Assay for Inhibitors of Influenza NS1 Protein Function | AID 2326, 2010 | 0.4% of 270,000 active | S. cerevisiae slowed by influenza A NS1, growth recovery by OD600 | Potency, µM (highest dose often 46.1 µM), without a hit: at the top dose activity, positive = more growth; active means well fitted rising curve with a large enough effect; inconclusive means small, poorly fitted or top-dose-only effect; inactive means no such curve, though single readings can be large or run the other way; note: nearly all actives have a fitted effect of over 50% in size
#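 Recovery from NS1-induced slow growth read by OD600 in budding yeast switched to galactose assay medium (pH 6.0, -URA) at 1:100 dilution. Compound 23 nl per well; the matching strain lacking NS1 serves as control.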
# SARS PLpro yeast: qHTS of Yeast-based Assay for SARS-CoV PLP; Potency, µM (top dose mostly 32.9 µM), without a hit: top-dose activity, positive = growth rescue; AID 485353, 2010; S. cerevisiae expressing SARS-CoV PLpro, growth rescue; control for the full effect not named in the record; 0.19% of 330,000 active; active means well fitted rising curve with a large enough effect; inconclusive means small, poorly fitted or top-dose-only effect; inactive means no such curve, though single readings can be large or run the other way; note: 0% is about no effect; nearly all actives have a fitted effect of over 55% in size; growth read by luminescence after 48 h
# LASV entry inh: qHTS for Inhibitors of binding or entry into cells for Lassa Virus; Lassa virus pseudotype entry inhibition, cell reporter; control for the full effect not named in the record; Potency, µM (highest dose often 37.9 µM), for the others: at the highest dose activity change, negative = inhibition, hits mostly inhibitors; 1.2% of 300,000 active; AID 540256, 2011; active means well fitted inhibition curve with a large enough effect; inconclusive means small, poorly fitted or top-dose-only effect, or effect the other way; inactive means flat fitted curve, though single readings scatter; tested in HEK293 cells; note: % is set by controls: 0 for no effect and ±100 for the full control effect; nearly all actives have a fitted effect of over 50% in size; luciferase read-out
# MARV entry inh: qHTS for inhibitors of binding or entry into cells for Marburg Virus; Marburg virus pseudotyped entry inhibition, cell reporter; control for the full effect not named in the record; about a third of the inactives were read at about 46 µM; 1.8% of 300,000 active; Potency, µM (series often up to 37.8 µM), inactives show top-dose activity change, negative = inhibition, usual class: inhibitors; active = well fitted inhibition curve with a large enough effect; inconclusive = small, poorly fitted or top-dose-only effect, or effect the other way; inactive = flat fitted curve, though single readings scatter; tested in HEK293 cells; about a fifth of its hits are not listed in these tables; note: % is set by controls: 0 for no effect and ±100 for the full control effect; luciferase read-out
# RE007 growth inh: qHTS Assay for Inhibitors of the HIV-1 protein Vpr | S. pombe RE007 Vpr strain, BacTiter-Glo ATP luminescence, 24 h; control for the full effect not named in the record | Potency, µM (doses to about 92.2 µM), for inactives: at the highest dose activity change, negative = less growth | 0.21% of 360,000 active; active = well fitted falling curve with a large enough effect; inconclusive = small, poorly fitted or top-dose-only effect; inactive = no such curve, though single readings can be large or run the other way;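 note: % is set by controls: 0 for no effect and ±100 for the full control effect; nearly all actives have a fitted effect of over 50% in size; the assay follows cell death caused by Vpr and the record does not say whether a fall means rescue or toxicity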
#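 Fission yeast RE007 carrying one integrated HIV-1 vpr copy, seeded at OD 0.01 in PMG+AL medium with 23 nL pinned compound. Grown 24 h at 30 degrees; viability read by BacTiter-Glo luminescence after 5 min.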
# The depositor's hits bear a star; ? = inconclusive; nt = not tested or not shown; & = joins results of further samples; [ ] = dose if it differs, or a comment. Unless noted, calls come from the whole dose curve; as a rule, active = well fitted curve in the direction sought with a large enough effect; inconclusive = small, poorly fitted or top-dose-only effect, or another doubt; inactive = no such curve, though single readings can be large; an effect the other way counts as inactive or inconclusive. Potency is the fitted concentration of half-maximal effect.
SMILES,2A StopGo,Cruzain inh noDet,Cruzain Triton,NS1 inh,SARS PLpro yeast,LASV entry inh,MARV entry inh,RE007 growth inh
COc1ccc(NC(=O)CCN2CCCCCC2)c(OC)c1,nt,3%,2.5%,-5%,-2%,8%,-1%,3%
CCCCOc1ccc(CNn2c(C)nc3ccccc3c2=O)cc1,?,?,-7.8%,-9%,-1%,-1%,?,4%
O=S(=O)(Nc1ccncc1)c1ccccc1,4%,-10%,9.3%,3%,-3%,1%,3%,12%
O=C(Nc1ccccc1)Nc1ccc(F)c([N+](=O)[O-])c1,?,19%,-2.9%,-55%,-2%,-11%,?,-11%
O=C(NC(=S)NCCc1ccccc1)c1ccco1,49%[activator],2%,0.2%,-64%,20%,?,9%,1%
Cc1noc(C)c1S(=O)(=O)N1CCC(C(=O)N2CCC(N3CCCCC3)CC2)CC1,-11%,-7%,0.9%,?,1%,nt,-3%,0%
O=C(NCc1ccccc1)c1ccccc1OCC(=O)N1CCCCC1,15%,2%,3.3%,7%,1%,-6%,-5%,23%
CC(NC(=O)c1cccc(OC2CCN(C(=O)C3CC3)CC2)c1)c1ccc(F)cc1 (stereo not given),-21%,nt,nt,-1%,0%,12%,?,12%
CCOc1cccc(/C(O)=C2/C(=O)C(=O)N(CCN3CCOCC3)C2c2cccnc2)c1 (stereo not given),-23%,-1%,-0.9%,8%,4%,1%,-2%,-7%
c1ccc(-c2cnc(-c3ccccc3)nc2)cc1,63%[activator],?,0.2%,0%,0%,?,?,4%
CC1(C)N=C(/C=N/O)C=[N+]1[O-],-7%,-4%,-1.7%,0%,2%,4%,0%,3%
COc1cccc(C(=O)OCC(=O)Nc2cc(C)on2)c1OC,6%,nt,nt,nt,7%,?,?,14%
CCC(=O)Nc1cccc(C2=NOC3(C2)C[C@@H](C(N)=O)N(C(=O)COc2ccc(Cl)cc2)C3)c1 (stereo not given in full),-12%,nt,nt,0%,0%,nt,nt,18%
COc1ccccc1C(=O)COC(=O)CNC(=O)c1ccc(Br)o1,-4%,nt,nt,nt,-2%,1%,-9%,5%
Cn1/c(=N\NC(=O)c2ccccc2Cl)sc2ccccc21,47%[activator],nt,nt,nt,1%,-13%,?,-8%
C=CCn1c(C(CCCC)CC(C)O)n[nH]c1=S (stereo not given),3%,-12%,-0.4%,6%,1%,3%,6%,5%
Fc1ccc(-n2c(Cc3ccccc3)nnc2SCc2nc(-c3cccs3)no2)cc1,nt,14%,-2.6%,-65%,-18%,-19%,-35%,-6%
CCN(CC)CCNC(=O)COc1ccc(Cl)cc1Cl,nt,1%,0.9%,-3%,7%,17%,?,-18%
COCCNC(=S)N1CCN(S(C)(=O)=O)CC1,-11%,nt,nt,-1%,1%,-1%,3%[46.1 µM],-8%
Cc1ccc(NC(=O)c2cc(S(=O)(=O)NC3CCCCC3)ccc2F)cc1Cl,15%,7%,1.4%,nt,nt,10%[46.1 µM],nt,nt
COc1ccc(NC(=O)C2CCN(C(=O)Cc3ccccc3)CC2)cc1OC,-13%,nt,nt,nt,3%,2%,12%[46.1 µM],0%
COc1cc(OC)cc(C(=O)Nc2cccc(-c3cn4cccnc4n3)c2)c1,-3%,?,-14%,nt,nt,12%[46.1 µM],nt,nt
COc1ccc(N/C(N)=N/c2nc(C)c(Cc3ccccc3)c(=O)[nH]2)cc1,-22%,nt,nt,14%,0%,nt,nt,1%
C/C(=N\NC(=O)CN1CCN(Cc2ccccc2)CC1)c1ccncc1,19%,nt,nt,1%,1%,2%,0%[14.2 µM],-5%
Cc1ccc(-n2nnnc2SCC(=O)NC2CCCc3ccccc32)c(C)c1 (stereo not given),?,0%,-7.0%,-20%,-28%,?,?,-1%
CCOc1ccc(CCNS(=O)(=O)c2c(C)n[nH]c2C)cc1OCC,-2%,7%,2.4%,-2%,1%,10%,?,15%
CCS(=O)(=O)c1ccc(C=NNc2nc3ccccc3o2)cc1,-14%,nt,nt,nt,nt,?,?,-14%
Cc1ccccc1-c1nc(CN2CCC(C(=O)NCCCN3CCCC3)CC2)c(C)o1,0%,0%,2.5%,2%,-4%,?,?,-4%
Nc1ncc(S(=O)(=O)NCc2ccc(F)cc2)cn1,5%,7%,0.7%,nt,nt,-13%[46.1 µM],nt,nt
Cc1ccc(NC(=O)/C(C#N)=C/c2ccccc2C(F)(F)F)cc1,-11%,-16%,-3.5%,12%,22%,23%,23%,-7%
O=C(/C=C/c1c(Cl)nc2ccccn12)N1CCN(c2ccc(F)cc2)CC1,?,nt,nt,-3%,-1%,-2%,-17%[46.1 µM],-1%
Cn1c(=O)c2cc(S(=O)(=O)NCCC(=O)NCc3ccccc3Cl)ccc2n(C)c1=O,-6%,-5%,1.7%,-14%,-14%,1%,-3%,4%
O=C(CSCc1ccccc1)N1CCN(S(=O)(=O)c2ccc(F)cc2)CC1,-4%,nt,nt,-8%,-3%,nt,nt,-3%
O=S(=O)(c1ccccc1)N1CCC(O)(CSc2ccc(Cl)cc2)CC1,?,2%,-2.8%,-34%,-12%,?,?,-13%
CC(C)c1ccc(CNCCSc2nnnn2C)cc1,?,1%,-0.8%,nt,nt,7%[46.1 µM],6%[46.1 µM],nt
CCC(=O)Nc1ccc(NC(=O)c2ccc3ccccc3c2)cc1,32%[activator],nt,nt,8%,-3%,6%,-15%,1%
Cc1cc(C)c(C)c(S(=O)(=O)Nc2cccc(S(=O)(=O)Nc3ccccc3C(=O)O)c2)c1C,-4%,nt,nt,nt,-19%,7%,?,6%
CCOc1ccccc1NC(=O)CSc1nc(N)c(C#N)cc1C#N,-22%,4%,2.6%,14%,1%,-13%,?,6%
CCc1nc2sc3c(N4CCCCC4)ncnc3c2c2c1CCCC2,-3%,-2%,-1.4%,nt,nt,16%[46.1 µM],12%[46.1 µM],nt
CCN(CC)CCOC(=O)c1ccc(NC(=O)CCCN2C(=O)S/C(=C/c3ccc(OC)cc3)C2=S)cc1,3.5µM*,nt,nt,23%,-7%,?,?,-3%
N#CC(c1nc2ccccc2nc1N1CCCCC1)S(=O)(=O)c1ccc(Cl)cc1 (stereo not given),nt,-8%,-12%,0%,-13%,nt,nt,nt
OC(CNCc1ccccc1)(c1ccc(F)cc1)c1ccc(F)cc1,-27%,-1%,-1.8%,0%,1%,-5%,?,-11%[3.69 µM]
Cc1cc(O)c(C(C)C)cc1NC(=O)c1ccccc1Cl,-4%,3%,0.2%,-9%,-5%,-19%,11%,0%
COc1ccc(OC)c(C2N=C(N)Nc3nc4ccccc4n32)c1 (stereo not given),-12%,1%,-0.3%,nt,nt,-17%[46.1 µM],?,nt
CC1(C)C(c2cccs2)=[N+]([O-])C2(CCCCC/C2=N\O)N1O (stereo not given),23%,7%,5.3%,1%,4%,-7%,3%,12%
CC(=O)Nc1ccc(OC(=O)C(CCS(C)(=O)=O)N2C(=O)c3ccccc3C2=O)cc1 (stereo not given),10%,-6%,-0.4%,-5%,nt,?,2%&13%,-13%
COc1ccc(/C=N/n2c(=O)[nH]c3c([nH]c4ccc(F)cc43)c2=O)cc1CN1CCCCC1,-10%,nt,nt,4%,0%,-1%,-22%,-5%
CCOc1ccc(S(=O)(=O)NCCC(=O)OCC(=O)c2ccc[nH]2)cc1,-6%,nt,nt,nt,1%,7%,3%[46.1 µM],3%
CC(C(=O)Nc1ccccc1C(=O)O)n1c(C(F)(F)F)nc2ccccc21 (stereo not given),-7%,nt,nt,nt,-1%,4%,3%[46.1 µM],17%
Cc1ccnc(NC(=O)c2cnc(Cl)c(Cl)c2)c1,15%,nt,nt,-12%,-2%,28%[46.1 µM],?,-16%
CC(C)N(c1nnc(N)s1)C(C)C,-6%,-13%,1.2%,-6%,-4%,2%,4%,-18%
CCOC(=O)CSc1nc2cc(OC)ccc2cc1C#N,45%[activator],-12%,-1.7%,-9%,0%,?,?,-10%
O=C(N/N=C/c1ccc(O)cc1)c1cc(-c2ccc3c(c2)OCO3)n[nH]1,20%,1%,-6.3%,20%,-10%,?,7.9µM*,1%
Cc1cc(C)c(N=C2CCCN2Cc2ccccc2)c(C#N)c1,2%,-6%,-1.9%,-17%,-28%,2%,-8%,-4%
CCCN1C(=O)c2ccccc2NC1c1ccc(O)c(OCC)c1 (stereo not given),-18%,nt,nt,4%,1%,nt,nt,5%
C=C(C)C(=O)Nc1cccc(C2=NOC3(C2)C[C@@H](C(N)=O)N(C(=O)C(=C)C)C3)c1 (stereo not given in full),-17%,nt,nt,1%,0%,nt,nt,11%
O=C(c1ccccc1Cl)N1CCC(O)(c2cccnc2)CC1,-7%,nt,nt,-3%,0%,7%,7%,7%
Cc1cccc(NC(=O)CCc2ccccc2)c1C,11%,nt,nt,4%,-3%,?,?,9%
O=C(COC(=O)c1ccc2ccccc2c1)NCCCc1ccccc1,11%,7%,-8.4%,-6%,9%,nt,nt,1%
COc1ccc(NC(=O)NNC(=O)c2ccccc2-n2cccc2)cc1OC,-2%,nt,nt,4%,2%,1%[46.1 µM],3%[46.1 µM],1%

# Next part
SMILES,2A StopGo,Cruzain inh noDet,Cruzain Triton,NS1 inh,SARS PLpro yeast,LASV entry inh,MARV entry inh,RE007 growth inh
CN1CCN(CC(=O)Nc2ccc(OC(F)(F)F)cc2)CC1,-3%,nt,nt,14%,1%,?,?,-3%
CC1CN(C(=O)c2ccc(CNS(=O)(=O)c3cccc(C(F)(F)F)c3)cc2)CC(C)O1 (stereo not given),-14%,?,-2.5%,10%,-5%,-30%,13µM*,22%
O=C(Cn1ccc(=O)[nH]c1=O)Nc1ccc(O)c([N+](=O)[O-])c1,-6%,nt,nt,nt,nt,20%[46.1 µM],-12%[46.1 µM],-4%
Cc1nnc(NC(=O)CCS(=O)(=O)Cc2ccccc2)s1,23%,nt,nt,9%,0%,1%[46.1 µM],?,4%
Cc1ccc(NC(=O)CSc2nc3c(c(=O)[nH]2)CN(Cc2ccccc2)CC3)cc1Cl,-9%,13%,-6.2%,nt,nt,-1%[46.1 µM],?,nt
NC(=O)CC(NC(=O)c1ccc(Cl)cc1)C(=O)NCCc1ccc(S(N)(=O)=O)cc1 (stereo not given),1%,nt,nt,2%,19%,13%,6%[46.1 µM],3%
